RGS16-Gao = regulators of human RGS16-Galphao interaction. O15492+P09471. bead-based flow cytometry RGS16-Galphao binding, fluorescence; actives lie on both sides. binding response (% of control), % at 10 µM. 220,000 compounds, 0.38% hits. AID 1441;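 active means below 25% or above 175%, edge rows of some plates excepted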;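 further: Galphao activated by GDP with aluminum fluoride before binding; 100% = wells without compound and 0% = beads without RGS; some results beyond the cut were filed as inactive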
Target sequence (O15492 whole entry, looked up): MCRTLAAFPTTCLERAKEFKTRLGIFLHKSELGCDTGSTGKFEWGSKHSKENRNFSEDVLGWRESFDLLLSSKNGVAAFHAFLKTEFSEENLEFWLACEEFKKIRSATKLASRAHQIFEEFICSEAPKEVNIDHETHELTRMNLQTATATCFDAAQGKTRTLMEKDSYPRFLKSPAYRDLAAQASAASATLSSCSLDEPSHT
Target sequence (P09471 whole entry, looked up): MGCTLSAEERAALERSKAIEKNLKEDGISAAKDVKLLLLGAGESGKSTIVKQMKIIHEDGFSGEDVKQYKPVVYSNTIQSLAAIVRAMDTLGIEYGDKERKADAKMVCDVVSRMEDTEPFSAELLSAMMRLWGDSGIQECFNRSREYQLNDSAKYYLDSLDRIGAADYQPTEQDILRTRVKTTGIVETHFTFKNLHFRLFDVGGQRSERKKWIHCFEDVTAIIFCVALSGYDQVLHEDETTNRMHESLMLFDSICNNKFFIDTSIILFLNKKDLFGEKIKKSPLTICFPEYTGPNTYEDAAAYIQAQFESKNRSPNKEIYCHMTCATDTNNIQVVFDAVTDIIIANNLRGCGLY
Insulin prom inh = TRM-6 insulin promoter activity inhibition | 130,000 compounds, 0.9% hits | TRM-6 cells (human fetal islet line), insulin promoter-eGFP reporter, imaging; reporter expression induced with tamoxifen | inhibition, % at 2 µM;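 active means inhibition above the mean plus 3 SD, with well images judged a real hit on visual review, cut at about 60% in these data, passing the limit was not always enough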
GALR2 ag = activates the human galanin receptor 2; O43603; activation, %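 (tested at 5 µM)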; 140,000 compounds, 0.48% hits; GALR2-expressing cells, agonist activation read-out;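 active means above mean plus 3 SD of all compounds, about 5% in these data, not always enough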;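 further: 0% = vehicle buffer wells and 100% = reference agonist at full effect; tested in CHO reporter cells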
Target sequence (O43603 whole entry, looked up): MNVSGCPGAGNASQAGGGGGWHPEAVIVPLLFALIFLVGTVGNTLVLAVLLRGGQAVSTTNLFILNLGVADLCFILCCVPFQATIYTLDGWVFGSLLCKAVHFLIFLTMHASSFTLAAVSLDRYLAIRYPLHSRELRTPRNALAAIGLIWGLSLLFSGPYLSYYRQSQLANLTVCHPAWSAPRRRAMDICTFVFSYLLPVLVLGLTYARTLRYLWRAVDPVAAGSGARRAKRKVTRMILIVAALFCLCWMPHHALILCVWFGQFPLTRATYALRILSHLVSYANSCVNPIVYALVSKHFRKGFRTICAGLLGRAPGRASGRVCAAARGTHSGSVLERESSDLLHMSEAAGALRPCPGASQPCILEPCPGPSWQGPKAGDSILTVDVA
HSV replic up = increases HSV replication in cells | HSV replication augmentation in cells, fold increase | maximum fold increase | 220,000 compounds, 0.005% hits | AID 1956;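 active means peak rise of 1.5-fold or more in the series; tested in PC3 cells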;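 further: first round at 10 µM; read as green reporter fluorescence; hits show the peak of a series up to 25 µM; 1 = signal of infected wells without compound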
PKD1 kinase inh = PKD1 (human) kinase inhibition; Q15139; PKD1 kinase fluorescence polarization assay; inhibition, %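 (about 10 µM by stock and volumes)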; 200,000 compounds, 0.056% hits; AID 797;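 active means inhibition of 50% or more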;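 further: controls were vehicle for no effect and a reference inhibitor for full effect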
Insulin prom inh cell count = further read-out of Insulin prom inh, marked with its call; normalized cell count, %; measured here: cell count, toxicity; reference of the scale not given here;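 cells exposed to compound for 48 h; stained nuclei by imaging scaled within each plate; lower means fewer cells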
HSV replic up primary fold = also measured in HSV replic up; calls as there; fold increase; compound at 10 µM; measured here: primary screen fold increase 10 uM; tested in PC3 cells;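 GFP signal in the first replicate; 1 = infected wells without compound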
An asterisk follows results filed as active; i = inactive; / = not tested or not shown. The order is random, and some 1.2% of all compounds hit somewhere here.

SMILES | RGS16-Gao | Insulin prom inh | Insulin prom inh cell count | GALR2 ag | HSV replic up | HSV replic up primary fold | PKD1 kinase inh
CN(c1ccccc1)S(=O)(=O)c1ccc(Cl)c(C(=O)OCC(=O)NCc2ccco2)c1 | 98 | / | / | / | i | 0.91 | /
C=CCOc1c(Cl)cc(CNc2ccc3[nH]c(=O)[nH]c3c2)cc1OC | 102 | / | / | 0.2 | i | 0.68 | -2
COc1cccc(C2=CC(c3cccc(OC)c3OC(F)F)n3nnnc3N2)c1 (stereo not drawn) | 101 | 14 | 88 | -0.5 | i | 0.99 | -7
CCOc1ccc(NC(=O)C[n+]2ccccc2)cc1 | 96 | / | / | -0.7 | i | 1.1 | -5
C=CCn1cnc2c(nnn2-c2ccc(C)c(Cl)c2)c1=O | 103 | 58 | 112 | / | i | 0.95 | -8
COc1ccc(/C=C/C(=O)NC(=S)NNC(=O)c2cccs2)cc1 | 93 | / | / | / | i | 0.78 | 2
O=C(COC(=O)CCc1nc2ccccc2s1)NCc1ccco1 | 106 | 67 | 64 | / | i | 1.1 | 1
Cc1cc([N+](=O)[O-])ccc1NC(=O)c1cncc(Br)c1 | 101 | -55 | 142 | -0.1 | i | 0.98 | -4
O=c1c(-c2ccc(Cl)cc2)coc2c(CN3CCOCC3)c(O)ccc12 | 103 | / | / | -0.6 | i | 1 | -6
COc1cc2ccccc2cc1C(=O)OCC(=O)NC1CCS(=O)(=O)C1 (stereo not drawn) | 111 | 50 | 112 | / | i | 0.96 | -6
NS(=O)(=O)c1ccc(NC(=O)CSc2ncnc3ccccc23)cc1 | 99 | -6 | 107 | / | i | 1.2 | 0
CCCC(CCC(=O)Nc1cccc([N+](=O)[O-])c1)C(=O)O (stereo not drawn) | 98 | / | / | / | i | 1.1 | /
COc1ccc(-n2c(=O)c(NC(=O)c3ccccc3)c3n(c2=S)CCCCC3)cc1 | 89 | -30 | 110 | / | i | 0.98 | -7
c1nc(N2CCCC2)c2[nH]cnc2n1 | 27 | 37 | 136 | 0.1 | i | 1 | 15
O=C(Cn1cnc2c(nnn2Cc2ccc(F)cc2)c1=O)NCc1ccccc1 | 101 | / | / | / | i | 0.99 | /
CCNC(=O)C1(c2ccccc2)CCCC1 | 106 | -25 | 133 | -0.9 | i | 0.94 | 4
CCOC(=O)CN1C(=O)NC2NC(=O)NC21 (stereo not drawn) | 102 | -23 | 78 | -1.5 | i | 1.1 | -11
CCOC(=O)N1C2C=C(C)[C@@H]2[C@@H]2CC(=O)N21 (stereo partly drawn) | 103 | 40 | 100 | -0.2 | i | 0.79 | -10
O=C(Nc1ccc(Br)cc1)N1CCCCC1 | 105 | / | / | / | i | 0.98 | -1
Cc1ccc(S(=O)(=O)NCCSCc2ccccc2)cc1 | 100 | -15 | 121 | -0.1 | i | 0.94 | -17
O=C(Nc1ccc(Cc2ccncc2)cc1)c1cc(F)c(F)cc1Cl | 103 | -50 | 106 | / | i | 0.79 | -4
O=C(CSc1nnc(-c2ccccc2)o1)N1CCN(c2ccccc2)CC1 | 108 | -341 | 44 | -0.1 | i | 0.96 | -10
Cc1onc(C(=O)N2CCOCC2)c1[N+](=O)[O-] | 99 | / | / | / | i | 1.1 | 2
CC(=O)Nc1cccc(OC(=O)COc2ccc(Br)cc2)c1 | 100 | 0 | 163 | -2.0 | i | 1.1 | -4
O=C(O)/C=C/C(=O)NNc1ccc([N+](=O)[O-])cc1 | 98 | / | / | / | i | 1 | 8
Cc1ccccc1NC(=S)N1CCCC(c2nc3ccccc3[nH]2)C1 (stereo not drawn) | 109 | -29 | 115 | / | i | 0.88 | -1
O=C(NNC(=O)c1nn(-c2ccc(F)cc2)ccc1=O)c1ccccc1Cl | 98 | / | / | / | i | 1 | /
Cc1csc(=Nc2cccnc2)n1CC1CCCCC1 | 101 | 47 | 146 | -0.9 | i | 1.2 | -3
O=C(OCC(=O)N1CCN(c2ccccc2)CC1)c1cccc(Cl)c1 | 105 | 40 | 113 | 0.2 | i | 0.86 | 8
CSc1ccccc1N1CCN(C(=O)Nc2ccc3c(c2)NC(=O)CO3)CC1 | 102 | 32 | 77 | -4.2 | i | 0.81 | -13
Cn1cc(S(=O)(=O)N2CCN(Cc3ccccc3)CC2)c(=O)n(C)c1=O | 106 | / | / | -4.4 | i | 1.1 | -9
Cc1cc(C)c(NC(=O)CN2CCC(NC(=O)NC3CCCCC3)CC2)c(C)c1 | 99 | -75 | 87 | / | i | 1 | 3
COc1cc(/C=N/NC(=O)COc2cc(C)cc(C)c2)ccc1OS(=O)(=O)c1ccc(C)cc1 | 92 | -116 | 86 | -0.3 | i | 0.9 | 3
Cn1c(CC(=O)Nc2ccc(Cl)c(Cl)c2)nnc1SCC(=O)NCc1ccccc1 | 100 | / | / | / | i | 1 | -9
CN1C(=O)[C@@H]2[C@@H]3C[C@@H]([C@H]4ON=C(c5ccccc5OCC#N)[C@@H]34)[C@@H]2C1=O | 95 | / | / | / | i | 0.97 | /
O=C1NCCCC1C(=O)NCCN1C(=O)CCC1=O (stereo not drawn) | 101 | 47 | 122 | -2.5 | i | 0.85 | -23
CCOc1ccccc1C(=O)N[C@H](C(=O)OCc1cc([N+](=O)[O-])cc2c1OCOC2)C(C)C | 99 | 3 | 112 | -1.0 | i | 0.96 | -10
Cc1ccc(/C=N/N2CCN(Cc3cccc4ccccc34)CC2)o1 | 100 | 22 | 134 | -1.1 | i | 0.9 | 0
CCN(CC)S(=O)(=O)c1ccc(N2CCOCC2)c(NC(=O)C(=O)c2c(-c3ccccc3)cc3ccccn23)c1 | 103 | -343 | 138 | -2.4 | i | 0.66 | -11
NS(=O)(=O)c1ccc(-c2ccc(/C=C3\C(=O)Nc4cc(Cl)ccc43)o2)cc1 | 95 | -128 | 125 | / | i | 1.1 | 3
Clc1ccc(-c2cc3ccccc3[nH]2)cc1 | 105 | -3 | 102 | -1.8 | i | 0.8 | 3
CCOC(=O)c1nn(-c2ccc(C)cc2)cc1C(=O)c1ccccc1 | 101 | -49 | 70 | -0.9 | i | 0.97 | 8
CNC(=S)NNC(=O)c1ccc2c(c1)OCO2 | 98 | 6 | 70 | / | i | 0.9 | 3
Cc1cc(NC(=O)CCC(=O)N(CC(=O)NC2CCCC2)c2ccccc2)no1 | 109 | -113 | 157 | -2.7 | i | 1 | -17
Cc1cc(C)cc(NC(=O)CSCc2nc3c(nnn3Cc3ccc(F)cc3)c(=O)[nH]2)c1 | / | -75 | 109 | -1.1 | i | 0.99 | 4
O=[N+]([O-])c1ccc(NCCCO)c(C(F)(F)F)c1 | 108 | 27 | 137 | -1.0 | i | 1 | 7
Cc1ccc(OCCCC(=O)Nc2ccc(S(N)(=O)=O)cc2)cc1 | 100 | 33 | 122 | / | i | 0.86 | 1
COc1ccc(CNC(=O)COC(=O)c2ccccc2OCC(=O)Nc2ccc(SC(F)F)cc2)cc1 | 102 | / | / | / | i | 0.85 | /
CCOc1ccc(NC(=S)N2CCC(C(N)=O)CC2)cc1 | 109 | 7 | 98 | 0.1 | i | 0.88 | 5
CCc1ccc(/C=N/Nc2ncnc3nc[nH]c23)cc1 | 102 | / | / | / | i | 0.78 | /
O=C1CSC(c2ccccc2F)N1CCN1CCCCC1 (stereo not drawn) | 102 | / | / | -0.2 | i | 0.85 | 2
Cc1nn(-c2ccc(Cl)cc2)c(NC(=O)C(C)C)c(-c2ccccc2)c1=O | 105 | / | / | / | i | 0.91 | /
COc1ccc2ncn(-c3ccccc3)c2c1 | 96 | -19 | 113 | -3.2 | i | 0.9 | 1
COc1ccc(NCc2ccc([N+](=O)[O-])s2)c(OC)c1 | 107 | -27 | 122 | -0.2 | i | 0.96 | -8
CCN1C(=O)/C(=C\c2cccn2-c2ccc([N+](=O)[O-])cc2)N(CC)C1=S | 78 | 7 | 79 | -1.1 | i | 1 | -9
COc1ccccc1Nc1ccc(C(=O)NCc2cccs2)cn1 | 102 | 31 | 138 | / | i | 0.95 | -4
CCn1c2ccccc2c2cc(/C=N/n3c(-c4cc(C)[nH]n4)n[nH]c3=S)ccc21 | 105 | / | / | / | i | 0.88 | /
COc1cccc(C(C(=O)NCc2ccco2)N(C(=O)Cn2nnc3ccccc32)C2CC2)c1OC (stereo not drawn) | 101 | / | / | -0.8 | i | 0.92 | -12
COc1ccc(S(=O)(=O)NNC(=O)c2cc3ccccc3o2)cc1 | 104 | -46 | 125 | -0.1 | i | 0.93 | -1
Cc1nc(N)sc1-c1csc(Nc2ccc(Cl)cn2)n1 | 92 | 29 | 165 | -0.5 | i | 1 | -3

Additional compounds.
SMILES | RGS16-Gao | Insulin prom inh | Insulin prom inh cell count | GALR2 ag | HSV replic up | HSV replic up primary fold | PKD1 kinase inh
Cc1ccc(-n2c(=O)c3sccc3n(CC(=O)N3CCCC3)c2=O)cc1 | 102 | / | / | -1.1 | i | 1 | 1
COc1ccc(OC)c(C2NC(=S)NC(C)=C2C(=O)Nc2ccccn2)c1 (stereo not drawn) | 105 | / | / | / | i | 0.77 | 1
COc1ccc(/C(C)=N/NC(=O)c2ccc(NS(=O)(=O)c3cccs3)cc2)cc1 | 96 | / | / | / | i | 0.98 | /
Cc1ccc2oc(Nc3nc(-c4ccccc4)cc(=O)[nH]3)nc2c1 | 101 | / | / | / | i | 0.65 | 6
NS(=O)(=O)c1cccc(NC(=O)C2CC(=O)N(Cc3ccco3)C2)c1 (stereo not drawn) | 100 | / | / | / | i | 1 | /
Cc1cc(=O)c2c(o1)CC(C)(C)CC2=O | 102 | -20 | 84 | -1.1 | i | 0.63 | 4
O=C(Nc1ccccn1)NC(C(F)(F)F)C(F)(F)F | 83 | / | / | -1.2 | i | 1.1 | 6
CCC(C)NC(=O)CCSCCC(=O)NC(C)CC (stereo not drawn) | 99 | 27 | 81 | -0.2 | i | 0.93 | 2
CC(=O)c1ccc2c(c1)OCCOCCOCCO2 | 102 | / | / | / | i | 0.92 | /
CCOc1ccc(C(=O)C[n+]2ccc(C(=O)NCc3ccccc3)cc2)cc1 | 116 | 57 | 68 | / | i | 0.97 | -3
CCc1nc(Nc2ccc3nccnc3c2)c2oc3ccccc3c2n1 | 105 | 0 | 86 | 0.5 | i | 0.8 | -8
CC1(C(=O)NC(=S)N(Cc2ccccc2)c2ccccn2)CC1(Cl)Cl (stereo not drawn) | 105 | / | / | 0.3 | i | 1 | -7

Structures above that contain a CF3 group, in the order listed:
SMILES | RGS16-Gao | Insulin prom inh | Insulin prom inh cell count | GALR2 ag | HSV replic up | HSV replic up primary fold | PKD1 kinase inh
O=[N+]([O-])c1ccc(NCCCO)c(C(F)(F)F)c1 | 108 | 27 | 137 | -1.0 | i | 1 | 7
O=C(Nc1ccccn1)NC(C(F)(F)F)C(F)(F)F | 83 | / | / | -1.2 | i | 1.1 | 6

Profiles from above. Order of values: RGS16-Gao, Insulin prom inh, Insulin prom inh cell count, GALR2 ag, HSV replic up, HSV replic up primary fold, PKD1 kinase inh
`COc1ccc(OC)c(C2NC(=S)NC(C)=C2C(=O)Nc2ccccn2)c1` (stereo not drawn) in the list: 105, /, /, /, i, 0.77, 1
`CC(=O)c1ccc2c(c1)OCCOCCOCCO2` in the list: 102, /, /, /, i, 0.92, /
`COc1ccc(/C(C)=N/NC(=O)c2ccc(NS(=O)(=O)c3cccs3)cc2)cc1` in the list: 96, /, /, /, i, 0.98, /
`CC1(C(=O)NC(=S)N(Cc2ccccc2)c2ccccn2)CC1(Cl)Cl` (stereo not drawn) in the list: 105, /, /, 0.3, i, 1, -7
`O=C(Nc1ccccn1)NC(C(F)(F)F)C(F)(F)F` in the list: 83, /, /, -1.2, i, 1.1, 6

Next part.
SMILES | RGS16-Gao | Insulin prom inh | Insulin prom inh cell count | GALR2 ag | HSV replic up | HSV replic up primary fold | PKD1 kinase inh
COc1ccc(CCNC(=O)C2CCN(S(=O)(=O)c3cccc4nonc34)CC2)cc1OC | 90 | 33 | 102 | -0.6 | i | 1 | -8
CC(OC(=O)C(C)N1C(=O)C2C3C=CC(C4CC34)C2C1=O)C(=O)c1ccccc1 (stereo not drawn) | 101 | -42 | 91 | -0.2 | i | 0.98 | 2
CCNC(=S)N(CCc1cccc(C)c1)Cc1cc2cc(OC)c(OC)cc2[nH]c1=O | 105 | -15 | 104 | 0.0 | / | / | -9
Clc1ccc(CONc2ncnc3nonc23)c(Cl)c1 | 115 | 35 | 87 | / | i | 1 | -8
CSc1nnc2c(n1)c(C)nn2-c1cccc(C)c1 | 31 | 14 | 119 | -1.7 | i | 0.83 | 0
CCN=C1S/C(=C\c2cn(CC)c3ccccc23)C(=O)N1CC | 48 | -17 | 98 | 1.1 | i | 0.84 | -7
Cc1ccc(Cn2ccc(NC(=O)C3C4CCC(C4)C3C(=O)O)n2)cc1 (stereo not drawn) | 106 | -16 | 97 | -0.2 | i | 1 | 1

High-throughput results (PubChem)
